Mtb H37Rv: Mycobacterium tuberculosis H37Rv growth inhibition, putative kinase inhibitor library, confirmatory dose response (AID 2842) | M. tuberculosis H37Rv growth inhibition; higher % means a stronger effect; some inactives read as strong as hits | 5.2% of 24,000 active | inhibition, % at 10 µg/mL, or IC90 in µg/mL where a hit was titrated;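 active = confirmed in a dose series; about a fifth of its hits are not listed in these tables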;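 note: bacteria incubated one week before Alamar blue readout; 0% = bacteria only wells and 100% = bacteria with high antibiotic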
The depositor's hits bear a star. These rows are one share of the data; count on the stated rates, not on these rows.

Compound | Mtb H37Rv
CC1(C)Cc2c(sc(NC(=O)c3ccc(S(=O)(=O)N4CCCCC4)cc3)c2C(N)=O)C(C)(C)N1 | -5%
COc1cccc(/C(O)=C2\C(=O)C(=O)N(CCCn3ccnc3)C2c2ccc(F)cc2)c1 (configuration not stated) | -18%
O=C(/C=C/c1cccs1)Nc1nnc(-c2ccc3c(c2)OCCO3)o1 | 37µg/mL*
O=C(Nc1nnc(-c2ccccc2Cl)o1)c1nc2ccccc2s1 | 1.8µg/mL*
Cn1c(=O)[nH]c(=O)c2c1nc(SCC(N)=O)n2Cc1ccccc1 | 1%
O=C(CSc1nccn(-c2ccc(F)cc2)c1=O)c1ccccc1 | 0%
CSc1nc2c(c(=O)n(C)c(=O)n2C)n1CCC(C)C | -6%
COc1cc(C(=O)NCCc2cc3c(C)ccc(C)c3[nH]c2=O)cc(OC)c1OC | 2%
C=CCn1c(=NC(=O)C2CC2)sc2cc(NC(C)=O)ccc21 | 18%
Cc1nnc(Nc2cccc3ccccc23)[nH]c1=O | -13%
CC1=C(C(=O)Nc2ccccc2Cl)C(c2ccc(C)cc2)NC(=O)N1 (configuration not stated) | 9%
CCc1nc(SCC(=O)Nc2cccc(C)c2C)c2c(=O)n(C)c(=O)n(C)c2n1 | -8%
N#C/C(=C\c1c[nH]c2ccccc12)C(=O)Nc1ccccc1O | -2%
COc1ccc(C(=O)NC(=S)Nc2ccccc2C(N)=O)cc1 | -10%
COc1ccc2cc(CCNC(=O)COc3ccc(Cl)cc3)c(=O)[nH]c2c1 | 6%
Cc1ccc(S(=O)(=O)Nc2ccccc2C(=O)Nc2nc(-c3cc(C)ccc3C)cs2)cc1 | 8%
Fc1cccc(-c2nnn3c2nc(N2CCCCCC2)c2ccccc23)c1 | 10%
CCOC(=O)c1nn(-c2ccc(Cl)cc2)c(=O)c2c(NC(=O)c3ccccc3F)scc12 | -6%
O=c1oc2ccc(Cl)cc2cc1-c1nnc(NCc2ccco2)s1 | 7%
Oc1c(C(c2cccc(F)c2)N2CCCCC2)sc2ncnn12 (configuration not stated) | -14%
COc1ccccc1NC(=O)c1ccc(S(=O)(=O)N(C)C2CCCCC2)cc1 | 0%
Cc1c(C)n2c3c(=O)[nH]c(=O)n(C)c3nc2n1C1CC(C)CC(C)(C)C1 (configuration not stated) | 12%
Cc1nnc(SCCn2c(N3CCC(C(N)=O)CC3)nc3c2c(=O)[nH]c(=O)n3C)s1 | 0%
CCS(=O)(=O)c1cccc(C(=O)Nc2nnc(-c3ccc4c(c3)CCCC4)o2)c1 | 16µg/mL*
COC(=O)c1ccccc1N=C/C(C(=O)C(F)(F)F)=C(\O)c1ccco1 | -8%
O=c1[nH]ncc(N/N=C\c2ccccn2)c1Cl | -3%
CCOc1ccccc1-c1cc(C(=O)O)[nH]n1 | -6%
N#Cc1c(/N=C/c2cc(Cl)cc(Cl)c2O)sc2c1C1CCN2CC1 | -6%
c1ccc2sc(-c3csc(Nc4nc5cc6c(cc5s4)OCO6)n3)nc2c1 | 1%
O=C1NC(=Nc2ccc(F)cc2)SC1Cc1cccc(C(F)(F)F)c1 (configuration not stated) | 88%
C/C=C\C(=O)Nc1scc2c(C(=O)OCC)nn(-c3ccc(F)cc3)c(=O)c12 | 5%
O=c1[nH]cc(S(=O)(=O)N2CCC3(CC2)OCCO3)c(=O)[nH]1 | -9%
Cc1ccc(C)c2[nH]c(=O)c(CCNC(=O)c3ccccc3F)cc12 | -2%
CCOC(=O)N1CCc2c(sc(NC(=O)c3cc(=O)c4ccccc4o3)c2C(N)=O)C1 | 0%
CC(=O)c1ccc(C(=O)Nc2sc3c(c2C(N)=O)CC(C)(C)NC3(C)C)cc1 | -12%
N#C/C(=C/c1ccco1)c1nc(-c2cccc([N+](=O)[O-])c2)cs1 | 0%
O=C(Nc1nc2c(cc3c4c(cccc42)CC3)s1)c1cccc(C(F)(F)F)c1 | -5%
COc1ccc(NC(=O)c2oc3ccccc3c2NC(=O)C2CCCO2)cc1OC (configuration not stated) | -5%
Cc1ccc(Cn2cc(C(=O)c3ccc(Cl)cc3)c(=O)c3cc4c(cc32)OCCO4)cc1 | 15%
Cc1c(C)n2c(SCc3cccc(Cl)c3)nnc2[nH]c1=O | -1%
CS(=O)(=O)c1ccc(-c2nnc(NC(=O)c3cccc(C(F)(F)F)c3)o2)cc1 | 84%
COc1cccc2cc(C(=O)Nc3ccc(F)cc3)/c(=N/NS(=O)(=O)c3ccccc3)oc12 | 2%
Nc1ncnc(N2CCN(c3ccc([N+](=O)[O-])cc3)CC2)c1[N+](=O)[O-] | -4%
O=C1CC(N2CCN(Cc3ccccc3)CC2)C(=O)N1 (configuration not stated) | -9%
CCN(CC)CCN1C(=O)C(=O)/C(=C(/O)c2ccc(OC)cc2C)C1c1ccc(O)cc1 (configuration not stated) | -8%
COc1cc(OC)cc(C(=O)Nc2c(C(N)=O)oc3ccccc23)c1 | -7%
COc1ccc(OC)c2[nH]c(=O)c(CCNC(=O)Cc3cccs3)cc12 | 6%
COCCN1C(=O)C(O)=C(C(=O)c2cc3ccccc3o2)C1c1cccnc1 (configuration not stated) | 3%
O=C1CN(C(=O)OCc2ccccc2)C(c2ccccc2Cl)c2cc(Br)ccc2N1 (configuration not stated) | 30%
Cc1ccc(-n2c(SCC(=O)Nc3nccs3)nc3c(c2=O)SCC3)cc1 | 10%

(listing goes on)
Compound | Mtb H37Rv
O=C(Nc1nnc(-c2ccc3c(c2)OCCO3)o1)c1ccco1 | 99%
COc1cccc(-c2nnc3n2N=C(c2ccc(F)cc2)CS3)c1 | -5%
O=C(O)c1cccnc1SC1CC(=O)N(c2ccc3c(c2)OCO3)C1=O (configuration not stated) | -6%
CC(=O)c1ccc(NC(=O)CSc2nnc3[nH]c(=O)c(C)c(C)n23)cc1 | -14%
Cc1nnc(NC(=O)Cc2cccc3ccccc23)s1 | 2%
COc1ccc(C(=O)Nc2nnc(-c3ccccc3)s2)c(OC)c1 | 9%
CC(=O)c1cccc(NC(=O)CSc2nnc3ccc(-c4cccs4)nn23)c1 | 1%
O=C1C(Cl)=C(Nc2cccc(O)c2)C(=O)N1c1ccccc1 | 19%
Fc1ccc2nc(Nc3sc4c(c3-c3nc5ccccc5s3)CCCC4)sc2c1 | 5%
N#Cc1ccc(-c2csc(NC(=O)CCOc3ccccc3)n2)cc1 | 22%
COc1cc(C(c2sc3nc(C)nn3c2O)N2CCCCC2)cc(OC)c1OC (configuration not stated) | -3%
CCOC(=O)c1ccc(CC(=O)c2cc(CC)c(O)cc2O)o1 | 68%
CCCC(=O)Nc1nnc(-c2cccc(C)c2)s1 | 6%
CCCSc1nc2c(c(=O)[nH]1)C(c1ccc(OC)cc1)C1=C(CCCC1=O)N2 (configuration not stated) | 8%
CC(C)Sc1nc2c(c(=O)[nH]1)C(c1ccncc1)C1=C(CC(C)(C)CC1=O)N2 (configuration not stated) | -3%
COc1ccccc1NC(=O)c1cn(C)cc2c(=O)n(-c3ccccc3)nc1-2 | 0%
CCOc1cccc(/C(O)=C2/C(=O)C(=O)N(Cc3ccncc3)C2c2cccc(O)c2)c1 (configuration not stated) | -2%
Cc1cc(NC(=O)CSC2=NS(=O)(=O)c3ccccc3N2)n[nH]1 | -5%
CCOC(=O)c1cc2c(=O)n3ccccc3nc2n(CCCOC)c1=N | 0%
COC(=O)c1ccccc1NC(=O)CSc1nc2sc3c(c2c(=O)[nH]1)CCCC3 | 2%
COc1cc(C(=O)NCCc2cc3ccc(C)cc3[nH]c2=O)cc(OC)c1OC | -3%
CC(O)CSc1nc2c(c(=O)n(C)c(=O)n2C)n1Cc1ccccc1 (configuration not stated) | 1%
CC12CC(NC(=O)N1c1ccc(F)c(F)c1)c1ccccc1O2 (configuration not stated) | -7%
O=C(Cc1n[nH]c(=O)[nH]c1=O)N/N=C/c1cccs1 | -12%
CCOC(=O)c1nn(-c2ccccc2)c(=O)c2c(NC(=O)c3ccc(S(=O)(=O)N(CC)CC)cc3)scc12 | -10%

Reprinted from above for reference:
Compound | Mtb H37Rv
COc1cccc(-c2nnc3n2N=C(c2ccc(F)cc2)CS3)c1 | -5%
O=C(O)c1cccnc1SC1CC(=O)N(c2ccc3c(c2)OCO3)C1=O (configuration not stated) | -6%
CC(=O)c1ccc(NC(=O)CSc2nnc3[nH]c(=O)c(C)c(C)n23)cc1 | -14%
Cc1nnc(NC(=O)Cc2cccc3ccccc23)s1 | 2%
COc1ccc(C(=O)Nc2nnc(-c3ccccc3)s2)c(OC)c1 | 9%
CC(=O)c1cccc(NC(=O)CSc2nnc3ccc(-c4cccs4)nn23)c1 | 1%
O=C1C(Cl)=C(Nc2cccc(O)c2)C(=O)N1c1ccccc1 | 19%
Fc1ccc2nc(Nc3sc4c(c3-c3nc5ccccc5s3)CCCC4)sc2c1 | 5%
N#Cc1ccc(-c2csc(NC(=O)CCOc3ccccc3)n2)cc1 | 22%
COc1cc(C(c2sc3nc(C)nn3c2O)N2CCCCC2)cc(OC)c1OC (configuration not stated) | -3%
CCOC(=O)c1ccc(CC(=O)c2cc(CC)c(O)cc2O)o1 | 68%
CCCC(=O)Nc1nnc(-c2cccc(C)c2)s1 | 6%
CCCSc1nc2c(c(=O)[nH]1)C(c1ccc(OC)cc1)C1=C(CCCC1=O)N2 (configuration not stated) | 8%
CC(C)Sc1nc2c(c(=O)[nH]1)C(c1ccncc1)C1=C(CC(C)(C)CC1=O)N2 (configuration not stated) | -3%

As entered above:
CCOC(=O)c1ccc(CC(=O)c2cc(CC)c(O)cc2O)o1 in Mtb H37Rv is listed with 68%
O=C(Cc1n[nH]c(=O)[nH]c1=O)N/N=C/c1cccs1 in Mtb H37Rv is listed with -12%

Going on with the list.
compound | Mtb H37Rv
COc1ccc(C2/C(=C(\O)c3ccc(F)cc3)C(=O)C(=O)N2c2nncs2)cc1 (configuration not stated) | 8%
CN1CCc2c(sc(NC(=O)c3ccc(Br)cc3)c2C(N)=O)C1 | 0%
C/C(=N/NC(=O)CCn1c2c(c3ccccc31)CCCC2)c1ccccc1 | 1%
CC1CCc2c(sc3ncnc(SCC(=O)NCc4ccccc4)c23)C1 (configuration not stated) | 2%
COc1ccc(S(=O)(=O)N2CCC(C(=O)Nc3nnc(-c4ccccc4Cl)o3)CC2)cc1 | -1%
CCOC(=O)c1nn(-c2ccccc2)c(=O)c2c(NC(=O)/C=C\c3ccccc3)scc12 | 2%
NC(=O)Cn1c(Cc2ccccc2)nc2ccccc21 | -2%
Cc1ccc(Cn2c(SC(C)C)nc3c2c(=O)[nH]c(=O)n3C)cc1 | 41%
Clc1ccc(-c2nnn3c2nc(NCc2cccs2)c2ccccc23)cc1 | -1%
Cc1ccc2nc(-c3ccc(NC(=O)c4cccn(OCc5ccc(F)cc5)c4=O)cc3)sc2c1 | 8%
COc1ccc(-c2nnc3c4cc5c(cc4n(Cc4ccccc4F)cc2-3)OCCO5)cc1OC | 20%
O=C(CSc1ncnc2ccccc12)N1CCN(c2ccccc2)CC1 | 2%
CCOC(=O)c1nn(-c2ccccc2)c(=O)c2c(NC(=O)c3c(F)cccc3Cl)scc12 | -6%
O=C(Cn1c(=O)n(CCc2ccccc2)c(=O)c2c3c(sc21)CCCC3)Nc1ccc(F)c(F)c1 | 2%
COc1cccc2sc(N3CCN(c4nc5c(OC)cccc5s4)CC3)nc12 | 4%
CC(=O)c1sc(NC(=O)c2ccccc2F)nc1-c1ccccc1 | 4%
CCOC(=O)c1nn(-c2ccc(C(F)(F)F)cc2)c(=O)c2c(NC(=O)c3ccc(OC)cc3OC)scc12 | 11%
CC(C)c1ccc(S(=O)(=O)c2cn(Cc3ccccc3F)c3ccc(F)cc3c2=O)cc1 | -6%
COC(=O)c1ccc(NC(=O)CSc2ncnc3ccccc23)cc1 | -11%
Cc1ccc(-c2nnc(NC(=O)c3ccc(C)c(C)c3)o2)c(C)c1 | 12%
CC(=O)Nc1cccc(NC(=O)NC2CC(=O)N(c3ccc(Cl)cc3)C2)c1 (configuration not stated) | -4%
CCOC(=O)c1nn(-c2ccc(Cl)cc2)c(=O)c2c(NC(=O)CC(C)C)scc12 | 3%
CN(Cc1ccccc1)S(=O)(=O)c1ccc(C(=O)Nc2nc(-c3cc(Cl)ccc3Cl)cs2)cc1 | 14%
O=C1/C(=C\c2cccs2)SC(=S)N1CC(=O)N1CCCc2ccccc21 | -5%
O=C1N/C(=N\N=C\c2ccccc2O)SC1Cc1cc(Cl)ccc1Cl (configuration not stated) | 4.5µg/mL*
COc1ccc(-c2nnc3ccc(SCc4cccc(F)c4)nn23)cc1OC | 13%
CCOC(=O)c1nn(-c2ccc(Cl)cc2)c(=O)c2c(NC(=O)C3CCCCC3)scc12 | 2%
COc1ccc2nc(-c3ccc(NC(=O)c4ccc(F)cc4F)cc3)cn2n1 | 4%
CN1CCc2c(OCC(=O)Nc3ccc4c(c3)OCO4)cccc2C1=O | 2%
CCc1ccccc1NC(=O)CC1Nc2cc(C)c(C)cc2NC1=O (configuration not stated) | 40%
O=C(Cn1nnc2sc3c(c2c1=O)CCCC3)NCc1ccccc1 | 1%
O=C(Nc1nnc(-c2ccc(Br)cc2)s1)c1cccc(F)c1 | 5%
Cc1ccc2c(c1)C(c1ccccc1)N(C(=O)c1ccccc1C)CC(=O)N2 (configuration not stated) | 4%
CCN1CCc2c(sc(NC(=O)c3ccc(Cl)cc3Cl)c2C(N)=O)C1 | 12%
Cc1ccc(S(=O)(=O)Nc2ccccc2C(=O)Nc2nc3c(C)c(C)ccc3s2)cc1 | 7%
CCN1CCN(CC(=O)Nc2ccc(C)cc2C)C(=O)C1=O | -6%
CC(=O)C(Sc1ccc2nnc(-c3ccncc3)n2n1)C(C)=O | -10%
CCOC(=O)C1=C(C)Nc2nnnn2C1c1cccc(O)c1 (configuration not stated) | 11%
Cc1ccc(-c2nnc(NC(=O)c3cccc(Br)c3)o2)c(C)c1 | 85%
Cc1ccc(-c2nnc(NC(=O)c3cccc(C(F)(F)F)c3)s2)cc1 | 3%
Cc1ccc(NS(=O)(=O)c2ccc3[nH]c(=O)cc(C)c3c2)cc1 | -7%
CCOCCn1ccc2c(OCC(=O)Nc3ccccc3OC)cccc2c1=O | 41%
Cc1ccc(N2CC(NC(=O)Nc3ccc(S(N)(=O)=O)cc3)CC2=O)cc1 (configuration not stated) | -1%
CCOC(=O)c1c(NC(=O)CSc2ncnc3ccccc23)sc2c1CCC2 | -5%
CCCCCCn1c(SCCN2CCOCC2)nc2c1c(=O)[nH]c(=O)n2C | 4%
Cc1ccc2nc(NC(=O)c3ccccc3Oc3ccccc3)sc2c1 | 9%

Screening results from PubChem.
